Bioassay records as filed in PubChem.
OX1R antag-1 – antagonists of human orexin 1 receptor (OX1R). OX1R-expressing cells, FRET antagonist read-out. inhibition, % at 6.6 µM. 1.8% of 330,000 active. AID 485270; in the data active = inhibition mostly above about 38%, no sharp cut-off; inactive = mostly below about 40%;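 note: 0% = agonist challenge alone and 100% = reference antagonist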
Target sequence (O43613 whole entry, looked up): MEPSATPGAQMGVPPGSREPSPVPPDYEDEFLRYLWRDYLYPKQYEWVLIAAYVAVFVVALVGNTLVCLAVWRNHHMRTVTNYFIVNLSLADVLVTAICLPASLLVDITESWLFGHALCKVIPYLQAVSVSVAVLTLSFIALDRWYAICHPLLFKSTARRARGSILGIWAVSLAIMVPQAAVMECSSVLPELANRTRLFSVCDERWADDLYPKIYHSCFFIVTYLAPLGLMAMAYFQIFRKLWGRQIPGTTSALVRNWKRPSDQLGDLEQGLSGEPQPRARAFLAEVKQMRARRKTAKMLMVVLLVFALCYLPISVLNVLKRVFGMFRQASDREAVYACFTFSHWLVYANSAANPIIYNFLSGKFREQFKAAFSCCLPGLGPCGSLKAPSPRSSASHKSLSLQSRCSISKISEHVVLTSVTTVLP
OX1R antag-2 – human HCRTR1 antagonism | O43613 | CHO/OX1R cells, Fluo-8 calcium fluorescence, orexin A | inhibition, % at 5 µM | 0.43% of 330,000 active | AID 434989;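 active = inhibition above its plate's threshold, mean inhibition of all tested compounds on the plate plus 3 SD, cut at about 37% in these data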;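 note: 0% = orexin A challenge wells and 100% = SB-334867-A antagonist wells; not every result past the cut was called active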
The depositor's hits bear a star. A portion of the library; most or all hits stand in other tables.

1. COC(=O)c1cc(-c2ccccc2)n[nH]1
2. COC(=O)CC1C(=O)NCCN1C(=O)CSc1nc2ccccc2s1 (stereo not drawn)
3. CN1Cc2c(N)cccc2C(c2ccccc2)C1 (stereo not drawn)
4. O=C(c1cccc([N+](=O)[O-])c1)N1CCN(c2ncccn2)CC1
5. COc1ccc(C(C(O)C(=O)c2c[nH]c3ccccc23)N2CCN(c3ccccc3)CC2)cc1 (stereo not drawn)
6. N#Cc1cc2c([nH]c1=O)CCCC2
assay / entry | 1 | 2 | 3 | 4 | 5 | 6
OX1R antag-2 | -14 | -16 | -16 | -2 | 16 | -4
OX1R antag-1 | 6 | 3 | 11 | 7 | -3 | 2

7. Cc1ccc2nc(-c3ccc(SCC(=O)O)nc3)[nH]c2c1
8. CCOC(=O)[C@@H]1[C@H]2COc3cc(OC)ccc3[C@@H]2N2C(=O)N(c3cccc(F)c3)C(=O)[C@]12C
9. Cc1cc(C(=O)N/N=C/c2cccn2C)n[nH]1
10. O=S(=O)(NNC(=S)Nc1ccc(S(=O)(=O)Nc2ncccn2)cc1)c1ccc(Br)cc1
11. O=C(/C=C/c1ccccc1)OCc1cnc(Cl)s1
12. COc1cc2c(cc1OC)CN(CC(=O)Nc1ccc(C)c(S(=O)(=O)N3CCOCC3)c1)CC2
assay / entry | 7 | 8 | 9 | 10 | 11 | 12
OX1R antag-2 | -19 | -19 | -5 | 1 | -3 | -28
OX1R antag-1 | 2 | 8 | 11 | 6 | 14 | 5

13. CN(C(=O)C12CC3CC(CC(C3)C1)C2)C1CCS(=O)(=O)C1 (stereo not drawn)
14. Cc1cc(C)c(S(=O)(=O)Nc2ccc3c(c2)CCC3)c(C)c1
15. O=C(COc1cc(F)ccc1[N+](=O)[O-])Nc1ccc(N2CCCCC2)cc1
16. CCC(CO)NCC(O)COCc1ccc2c(c1)OCO2 (stereo not drawn)
17. COc1ccccc1OCCn1cc(/C=C(\C#N)C(=O)NCc2ccco2)c2ccccc21
18. COc1cc(NC(=O)C2CC(c3ccc(Cl)cc3)=NO2)cc(OC)c1OC (stereo not drawn)
assay / entry | 13 | 14 | 15 | 16 | 17 | 18
OX1R antag-2 | -12 | -4 | -14 | -3 | 9 | -14
OX1R antag-1 | 20 | 8 | 27 | 6 | 29 | 18

19. CCOc1cc(C(=O)N/N=C/c2ccsc2)cc(OCC)c1OCC
20. O=C(NCC1CCCCC1)c1ccc(=O)[nH]c1
21. COc1ccccc1CNC(=O)CSc1nn2c(=O)c(C(C)(C)C)nnc2s1
22. CCNC(=O)C1=C(O)c2sccc2N(C)S1(=O)=O
23. Cn1c(SCC(=O)NCc2ccc(F)cc2)nc2c([nH]c3ccccc32)c1=O
24. C=CCn1c(-c2ccoc2C)n[nH]c1=S
assay / entry | 19 | 20 | 21 | 22 | 23 | 24
OX1R antag-2 | -21 | 5 | -37 | -6 | -9 | -17
OX1R antag-1 | 5 | 8 | 4 | 29 | 24 | 3

25. CC1CC(C)CN(S(=O)(=O)c2cccc3cccnc23)C1 (stereo not drawn)
26. COc1cccc(/C=C/C(=O)OCC(=O)c2ccc3c(c2)NC(=O)CO3)c1
27. Cc1ccc(-c2nc3ccccc3[nH]2)s1
28. Cc1sc2ncn(-c3ccccc3)c(=O)c2c1C
29. Cc1cnc(C(=O)OCc2nc3ccsc3c(=O)[nH]2)cn1
30. COC(=O)C1=C(C)NC2=C(C(=O)C(C(=O)OC)C(c3ccc(OC)cc3)C2)C1c1ccccn1 (stereo not drawn)
assay / entry | 25 | 26 | 27 | 28 | 29 | 30
OX1R antag-2 | -25 | 2 | -24 | -17 | -8 | -8
OX1R antag-1 | 24 | 1 | 16 | 2 | -4 | 11

31. COc1ccc(-n2ncc(C(=O)N3CCN(c4ccc(F)cc4)CC3)c2C)cc1
32. CCOC(=O)CNC(=O)CCNS(=O)(=O)c1ccc2c(c1)c(=O)n(C)c(=O)n2C
33. O=S(=O)(c1ccc(Cl)s1)N1CCCCC1
34. COc1ccc(C(=O)c2c(NC(C)=O)sc3c2CCN(C(=O)OC(C)(C)C)C3)cc1
35. CCc1ccc(NC(=O)c2ccc3nc(N)sc3c2)cc1
36. CC1(C)Cc2c(sc3nc(SCC(=O)N4CCOCC4)nc(N)c23)CO1
assay / entry | 31 | 32 | 33 | 34 | 35 | 36
OX1R antag-2 | -10 | 6 | 11 | -38 | -14 | -10
OX1R antag-1 | 5 | 10 | 11 | 8 | 15 | 18

37. CCOc1ccc(Cc2c(Cl)nc(SC)nc2OC)cc1
38. O=C(NCC1CCN(S(=O)(=O)c2ccccc2)CC1)Nc1ccc(F)cc1F
39. COC(=O)c1ccc(-c2noc(CN(Cc3ccccn3)CC3CCCO3)n2)cc1 (stereo not drawn)
40. CSCC[C@H](NC(=O)[C@@H]1Cc2ccccc2CN1)C(=O)Nc1ccc2c(c1)OCCO2
41. Nc1c(C(=O)Nc2ccc(F)cc2)sc2nc(-c3ccco3)ccc12
42. COC(=O)[C@@H]1C[C@H]2CC[C@H](O)C[C@H]2N1Cc1ccc(C)s1
assay / entry | 37 | 38 | 39 | 40 | 41 | 42
OX1R antag-2 | -3 | -17 | -15 | -29 | -22 | -3
OX1R antag-1 | 20 | 8 | 8 | 0 | 16 | 18

43. Cc1ccc(-c2nnn(CC(=O)N(CCO)C(C(=O)NC3CCCC3)c3ccc(F)cc3)n2)o1 (stereo not drawn)
44. CS(=O)(=O)Nc1ccccc1C(=O)NC1CC2CCC1C2 (stereo not drawn)
45. CCN(CC)C(=O)Cn1cc(S(=O)(=O)CC(=O)Nc2ccc(F)cc2F)c2ccccc21
46. CC1CCN(C(=O)CCN2C(=O)/C(=C/c3cccs3)SC2=S)CC1
47. O=C(Cc1ccc(Br)cc1)N1CCCC1
48. COc1ccc(S(=O)(=O)Nc2ccc3c(c2)C(=O)N([C@H](C)CO)C[C@H](C)[C@@H](CN(C)C(=O)NC2CCCCC2)O3)cc1
assay / entry | 43 | 44 | 45 | 46 | 47 | 48
OX1R antag-2 | -36 | -8 | -26 | -26 | 0 | -2
OX1R antag-1 | 18 | 12 | 14 | 11 | 13 | 6

49. CC(C)C12CN3CC(C(C)C)(CN(C1)C3c1ccc([N+](=O)[O-])o1)C2=O (stereo not drawn)
50. O=C(c1ccc(CNS(=O)(=O)c2ccccc2)cc1)N1CCN(Cc2ccccc2)CC1
51. Cc1ccc(S(=O)(=O)N2CCN(C(=O)Cn3c(=O)cnc4ccccc43)CC2)cc1
52. Cc1cccc(-n2ccnc2SCC(=O)c2c(N)n(C3CC3)c(=O)[nH]c2=O)c1C
53. CCCN(CCC)CCCNC(=O)c1cc2c(=O)[nH]c3ccccc3c2n1C
54. COc1ccc(OC)c(NC(=O)N[C@H](Cc2ccccc2)C(=O)NN)c1
assay / entry | 49 | 50 | 51 | 52 | 53 | 54
OX1R antag-2 | -4 | -32 | -16 | 2 | -20 | -12
OX1R antag-1 | 45 | 7 | 13 | 2 | 9 | 18

55. COc1cccc(/C=C2\SC(=S)N(NC(=O)c3ccncc3)C2=O)c1
56. COc1ccccc1CN(CC(=O)NCc1ccc(F)cc1)C(=O)c1csnn1
57. COC(=O)c1ccc(NC(=O)C2CCCN2S(=O)(=O)c2ccc(C)cc2)cc1 (stereo not drawn)
58. CC(C)CNC(=S)NC1CC2CCCC(C1)N2Cc1cccs1 (stereo not drawn)
59. COc1ccc(CCNC(=O)CCc2cc(OC)c(OC)c(OC)c2)cc1
60. CCc1nc(SCC(=O)Nc2cc(C)ccc2OC)c2c(C)c(C)sc2n1
assay / entry | 55 | 56 | 57 | 58 | 59 | 60
OX1R antag-2 | -16 | -32 | -33 | -9 | -15 | -2
OX1R antag-1 | 21 | 6 | 22 | 22 | 2 | 8

61. Cc1ccc(CN2CCNC2=O)cc1
62. COC(=O)C(C(=O)OC)C(C(=O)OC)C(C(=O)OC)C(=O)OC
63. Cc1ccc(C(C)C)c(OCC(=O)N/N=C/c2cccn2C)c1
64. CC(C)(C)c1cc(NC(=O)c2cccnc2)no1
65. COCCN(C(=S)Nc1ccc(OC)cc1)C1CCN(C(C)C)CC1
66. COc1ccc(-c2sc3ccc(N4CCOCC4)cc3c2-c2ccc(O)cc2)cc1
assay / entry | 61 | 62 | 63 | 64 | 65 | 66
OX1R antag-2 | -9 | -8 | 7 | 4 | -8 | 14
OX1R antag-1 | 1 | -3 | 25 | 7 | 13 | 6

Looked up one by one from the entries so far (2):
21. COc1ccccc1CNC(=O)CSc1nn2c(=O)c(C(C)(C)C)nnc2s1
39. COC(=O)c1ccc(-c2noc(CN(Cc3ccccn3)CC3CCCO3)n2)cc1 (stereo not drawn)
assay / entry | 21 | 39
OX1R antag-2 | -37 | -15
OX1R antag-1 | 4 | 8

The list continues:
67. FC(F)(F)c1cccc(CN2CCC(c3cc(-c4cccs4)n[nH]3)CC2)c1
68. Cc1cnc(NC(=O)CSc2nnc(C)s2)s1
69. O=C(Nc1ccc(F)cc1)C1(S(=O)(=O)c2ccc(Cl)cc2)CC1
70. Nc1nc2ccccc2n1C(=O)c1cccs1
71. CC(=O)/C=C(\C)Nc1ccc(-c2cnc(-c3ccccc3)o2)cc1
72. CC1CCC2(CC1)NC(=O)N(CC(=O)c1ccc3c(c1)OCO3)C2=O (stereo not drawn)
assay / entry | 67 | 68 | 69 | 70 | 71 | 72
OX1R antag-2 | -9 | 5 | -21 | -8 | 0 | -25
OX1R antag-1 | 10 | 11 | 13 | 14 | 27 | 2

73. Fc1ccc(CNc2nc(-c3cccnc3)nc3ccccc23)cc1
74. C[C@@H]1CN([C@H](C)CO)C(=O)c2cccc(NC(=O)Nc3ccc(F)cc3)c2O[C@H]1CN(C)C(=O)Nc1ccc(C(F)(F)F)cc1
75. COc1ccc(COCC(O)CN2CCC(C(N)=O)CC2)cc1 (stereo not drawn)
76. CC(=O)c1ccc(Sc2ccccc2N)c([N+](=O)[O-])c1
77. Cc1ccc(CNC(=O)CCCN2C(=S)NC(C)(C)CC2C)cc1 (stereo not drawn)
78. CN1C(=O)CSc2ccc(NC(=O)N3CCC(N4CCCCC4)CC3)cc21
assay / entry | 73 | 74 | 75 | 76 | 77 | 78
OX1R antag-2 | -27 | -13 | 12 | -1 | -25 | -9
OX1R antag-1 | 15 | 8 | 10 | 13 | 3 | 9

79. C/C(=N\O)C(=O)OC1CC(C)CCC1C(C)C (stereo not drawn)
80. CCN(CC)c1cc(C)c(C#N)c2nc3ccccc3n12
81. NC(=O)N/N=C/c1sc(=O)n(-c2ccccc2)c1Cl
82. N#Cc1ccc(C2=CC(=O)C[C@H](c3ccc(F)cc3)C2)cc1
83. COc1cc(C(CC(=O)O)n2cnnn2)ccc1OC(C)C (stereo not drawn)
84. O=C(CC1Oc2ccccc2NC1=O)NCCCN1CCOCC1 (stereo not drawn)
assay / entry | 79 | 80 | 81 | 82 | 83 | 84
OX1R antag-2 | -21 | -15 | 2 | -9 | -1 | -11
OX1R antag-1 | 4 | 10 | 7 | 10 | 13 | 4

85. Cc1c(C(=O)OCC(=O)N2CCCC(C)C2)oc2ccccc12 (stereo not drawn)
86. Cc1ccc(N(CCC#N)C(=O)CCl)cc1C
87. Cc1cccc(-c2nc(CSCC(=O)NCCCN3CCOCC3)c(C)o2)c1
88. CC1=C(C(=O)OCc2ccccc2)C(c2ccc(C(F)(F)F)cc2)NC(=O)N1CCCCCC(=O)O (stereo not drawn)
89. COCCCn1c(C)nc2c(c1=O)c1nc3ccccc3nc1n2CCc1ccccc1
90. O=c1c2ccccc2nnn1Cc1ccc2ccccc2c1
assay / entry | 85 | 86 | 87 | 88 | 89 | 90
OX1R antag-2 | -16 | -4 | -23 | -45 | -24 | -12
OX1R antag-1 | 28 | 6 | 12 | 22 | 16 | 18

Laid out differently: 13 of the compounds above
Below each compound – OX1R antag-2, OX1R antag-1
75) COc1ccc(COCC(O)CN2CCC(C(N)=O)CC2)cc1 (stereo not drawn)
  12, 10
76) CC(=O)c1ccc(Sc2ccccc2N)c([N+](=O)[O-])c1
  -1, 13
77) Cc1ccc(CNC(=O)CCCN2C(=S)NC(C)(C)CC2C)cc1 (stereo not drawn)
  -25, 3
78) CN1C(=O)CSc2ccc(NC(=O)N3CCC(N4CCCCC4)CC3)cc21
  -9, 9
79) C/C(=N\O)C(=O)OC1CC(C)CCC1C(C)C (stereo not drawn)
  -21, 4
80) CCN(CC)c1cc(C)c(C#N)c2nc3ccccc3n12
  -15, 10
81) NC(=O)N/N=C/c1sc(=O)n(-c2ccccc2)c1Cl
  2, 7
82) N#Cc1ccc(C2=CC(=O)C[C@H](c3ccc(F)cc3)C2)cc1
  -9, 10
83) COc1cc(C(CC(=O)O)n2cnnn2)ccc1OC(C)C (stereo not drawn)
  -1, 13
84) O=C(CC1Oc2ccccc2NC1=O)NCCCN1CCOCC1 (stereo not drawn)
  -11, 4
85) Cc1c(C(=O)OCC(=O)N2CCCC(C)C2)oc2ccccc12 (stereo not drawn)
  -16, 28
86) Cc1ccc(N(CCC#N)C(=O)CCl)cc1C
  -4, 6
87) Cc1cccc(-c2nc(CSCC(=O)NCCCN3CCOCC3)c(C)o2)c1
  -23, 12

(cont.)
91. CCOC(=O)c1oc2ccccc2c1NC(=O)c1ccc2c(c1)OCO2
92. O=C(Cn1ncnn1)OCc1ccccc1Cl
93. COc1ccc(Cl)cc1S(=O)(=O)NC(C)C(=O)NCc1ccc2c(c1)OCO2 (stereo not drawn)
94. COc1ccccc1C/C(N)=N/OC(=O)COc1cccc(C)c1C
95. CC(CCc1ccccc1)NC(=O)c1ccc(NC(=O)c2ccccc2)cc1 (stereo not drawn)
96. COC(=O)CC1C(=O)NCCN1C(=S)Nc1cccc(C(F)(F)F)c1 (stereo not drawn)
assay / entry | 91 | 92 | 93 | 94 | 95 | 96
OX1R antag-2 | -33 | -7 | -27 | -14 | 1 | -10
OX1R antag-1 | 8 | 18 | 18 | 35 | 8 | -2
